T cruzi inh – inhibitors of intracellular T. cruzi growth, primary screen, luminescence, NIH3T3 host cells; AID 1885, 2009; inhibition, % (concentration not given with the values); hit rate 1.4% among 300,000; T. cruzi beta-gal in NIH3T3, 90 h;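 active = mean inhibition across valid replicates above about 55%, limit read from the data; inconclusive = mean below that limit but half or more replicates reach it; inactive = mean below it, under half of replicates reach it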;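 note: signal also drops with host cell toxicity which is not excluded here; 0% = plate median of DMSO wells and 100% = zero luminescence signal; higher percent means less beta-gal luminescence so fewer parasites; stock transfer was 50 nL into about 50 µL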
Calb FLC – C. albicans growth inhibition with fluconazole, primary screen, CaCi-2 strain, Alamar Blue fluorescence; C. albicans CaCi-2 (fluconazole-resistant clinical isolate) + fluconazole, 48 h; growth inhibition, % (no concentration beside the values); hit rate 0.57% among 300,000; AID 1979, 2009;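 active = most replicates above 75%; inconclusive = exactly half above 75%; inactive = most below 75%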;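 note: all wells also contain fluconazole at 8 µg/ml as a sub-toxic cotreatment; 0% = median of DMSO wells and 100% = median of geldanamycin control wells; wells of about 8 µL received 7.5 nL stock; the first replicate is given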
ALR inh – inhibitors of human ALR sulfhydryl oxidase, primary screen, biochemical, H2O2 detection, HRP-luminol luminescence, single point. purified ALR, DTT oxidation. inhibition, % (no concentration beside the values). hit rate 3.8% among 290,000. AID 485317, 2010;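 active = mean and each replicate at 75% or more; inconclusive = only one of the two met; inactive = neither met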;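 note: stock transfer was 7.5 nL into about 7.5 µL; 0% = neutral wells and 100% = wells with inactivated enzyme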
Target sequence (P55789 whole entry, looked up): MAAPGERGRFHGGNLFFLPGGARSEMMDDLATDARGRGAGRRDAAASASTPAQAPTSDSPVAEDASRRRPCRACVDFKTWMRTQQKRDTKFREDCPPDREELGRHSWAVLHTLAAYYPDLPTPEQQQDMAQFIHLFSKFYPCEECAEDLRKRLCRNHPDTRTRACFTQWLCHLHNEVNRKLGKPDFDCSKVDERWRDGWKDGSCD
Beta apoptosis – inhibitors of cytokine-induced beta cell apoptosis, primary screen, luminescence. INS-1E cytokine-induced death, ATP luminescence, 48 h; percent of positive-control rescue, neutral wells zero. protection from apoptosis, % (no concentration beside the values). hit rate 0.8% among 300,000;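 active = all replicates at 75% or more, or half of them and the mean; inconclusive = half reach 75% but not the mean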;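 note: 0% = cytokine-treated negative control wells and 100% = positive control rescue; higher means more ATP so stronger rescue from cytokine killing; wells of about 40 µL received 100 nL stock; the first replicate is given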
Ecoli rRNA inh – reduced GFP signal of wild-type E. coli, primary screen, bacterial rRNA inhibitor project, GFP/RFP fluorescence, OD600, single point; E. coli WT GFP vs humanized-ribosome RFP mutants, 24 h; stronger effect = lower value; DMSO median 0, no signal -100; hit rate 1.6% among 350,000; GFP signal change (wild-type ribosome), % (test concentration not listed);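 active = significant combined selectivity score with lowered wild-type GFP, culture density cut under 30%, mutant RFP and density less affected; inactive = any of these conditions unmet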; note: one replicate is shown; some compounds called inactive have numbers as strong as hits
Beta2AR agonist – beta2AR agonists driving receptor internalization, primary screen, cell-based, FAP fluorogen, flow cytometry | Am2.2-beta2AR cells; reference of the scale not given here | response, % (test concentration not listed) | hit rate 0.43% among 340,000 | AID 504454, 2011;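 active = response above a set limit, near 3 SD of response in nonfluorescent compounds, cut at about 42% in these data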;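 note: stock transfer was 100 nL into about 11 µL; a reference agonist was the positive control; negative values mostly stem from fluorescent compounds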
Target sequence (P07550 whole entry, looked up): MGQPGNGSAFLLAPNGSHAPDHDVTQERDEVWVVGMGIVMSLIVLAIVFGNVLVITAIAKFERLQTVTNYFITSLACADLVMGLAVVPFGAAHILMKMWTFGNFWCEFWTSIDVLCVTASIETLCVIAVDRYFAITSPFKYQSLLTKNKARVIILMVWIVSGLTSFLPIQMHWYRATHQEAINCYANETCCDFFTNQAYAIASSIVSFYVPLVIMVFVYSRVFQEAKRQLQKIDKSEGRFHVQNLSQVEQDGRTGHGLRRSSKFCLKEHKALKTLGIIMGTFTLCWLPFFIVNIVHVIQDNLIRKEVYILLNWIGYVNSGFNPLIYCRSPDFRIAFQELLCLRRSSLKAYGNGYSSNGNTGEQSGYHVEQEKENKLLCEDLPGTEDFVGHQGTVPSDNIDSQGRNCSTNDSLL
LANA-H2A inh – blockers of LANA interaction with H2A/H2B – biochemical, FP readout, HTS, primary screen; hit rate 0.6% among 320,000; AID 2629, 2010; cell-free LANA-H2A/H2B peptide, fluorescence polarization; Protein LANA1 (Human herpesvirus 8 type P (isolate GK18)), Q9QR71; inhibition, % (concentration not given with the values); in the data active = inhibition mostly above about 10%, no sharp cut-off; inactive = mostly below about 6.7%;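 note: stock transfer was 7.5 nL into about 10 µL; 0% = median of vehicle wells and 100% = median of positive control wells; one replicate is shown; the record names a cut of 25% in any replicate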
A1 inh – caspase 3/7 activation in MEF A1-2A-BIM cells, primary screen, A1 inhibitor project, cell-based, luminescence, HTS. caspase activation, % (concentration not given with the values). Caspase-Glo 3/7 luminescence, 3 h; percent of clofoctol response, vehicle zero. hit rate 0.066% among 330,000. AID 2462, 2010;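 active = over half of replicate activation scores above 10%, or exactly half above 10 with the replicate mean above 10; inconclusive = replicate mean below 10 yet half the replicates above 10; inactive = over half of replicates below 10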;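 note: wells of about 30 µL received 50 nL stock; many hits fall short of the cut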
Ecoli rRNA inh OD600 – second read-out of Ecoli rRNA inh, no call of its own (marks repeat the call); OD600 change, %; measured here: OD600 growth;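 optical density of the mix in the first replicate; 0 = DMSO median and -100 = no signal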
Ecoli rRNA inh RFP – recorded beside Ecoli rRNA inh, whose call it bears; RFP signal change, %; measured here: RFP humanized mutant strains;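 first replicate; 0 = DMSO median and -100 = no signal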
An asterisk follows results filed as active; i = inactive; ? = inconclusive; nt = not tested or not shown. A portion of the library. The share of hits here may be higher or lower than overall.

SMILES	ALR inh	T cruzi inh	Ecoli rRNA inh	Calb FLC	A1 inh	Ecoli rRNA inh RFP	Ecoli rRNA inh OD600	Beta2AR agonist	LANA-H2A inh	Beta apoptosis
COc1cc(NC(=O)c2ccc(OC)c([N+](=O)[O-])c2)ccc1NC(=O)c1ccco1	-11	16	2	8	0.6	-2.1	7	-4	4.6	7
O=C(NCC(=O)N1CCN(c2ccccc2)CC1)c1cccs1	96*	-4	11	-3	-1.4	2.7	15	6	2.2	-1
Cc1nc(N)[nH]c(=O)c1CCC(=O)OCC(C)C	0	-5	nt	-4	-0.2	nt	nt	2	-0.9	-3
COc1ccccc1-[n+]1c(C)cc(/C=C2\Sc3ccccc3N2C)cc1C	98*	56*	-17	-9	0.1	-22	-81	i	-51	110*
O=C(Nc1ccc2c(c1)OCCO2)c1cnn(-c2ccccc2)n1	2	nt	-38	nt	-2.7	-13	-48	-6	-1.6	-4
O=C(Nc1ccc(Cl)cc1)[C@@H]1[C@@H]2C(=O)N(c3cccc(F)c3)C(=O)[C@@H]2[C@H]2C=CC=NN21	0	-8	-6	-2	-0.2	8.0	-1	3	4.7	-6
O=C(CN1CCNC(=O)C1)NCCc1ccc(Cl)cc1Cl	-14	-3	21	0	0.0	3.0	19	0	2.8	-3
CC(=O)c1cccc(NC(=O)c2cc3ccccn3n2)c1	-13	-2	-2	4	-2.7	-5.9	-6	-11	1.7	0
S=c1[nH]nc(-c2ccco2)n1/N=C/c1ccc(Cl)cc1Cl	73	-3	-7	29	-0.2	1.6	-13	-13	0.2	1
COc1ccccc1C(=O)NNC(=O)c1cccc(Cl)c1	-14	-11	6	17	-5.1	-1.9	6	-3	-2.8	1
CSc1nc2sc3c(c2c(=O)[nH]1)CCc1ccccc1-3	-23	0	3	-19	-0.1	-0.9	2	-1	-1.1	5
O=C(/C=C/c1cn(CC(O)CN2CCCCC2)c2ccccc12)c1ccccc1 (configuration not stated)	nt	14	-38*	-7	nt	-0.9*	-30*	21	nt	nt
CCCN1Cc2cccc(C(N)=O)c2C1=O	2	2	nt	-3	-0.9	nt	nt	5	1.5	-9
O=C(NCc1ccccn1)c1cn(CCc2ccccc2)nn1	-3	2	nt	nt	-0.6	nt	nt	1	3.1	-3
COc1ccc(S(=O)(=O)NNC(=O)c2csc(-n3nc(C)cc3C(F)(F)F)n2)cc1	25	-5	nt	3	1.5	nt	nt	-4	2.8	-13
Cc1cccc(N2CCN(C(=O)N3CCOCC3)CC2)c1C	13	-11	0	-9	-0.5	1.8	-2	-17	10	nt
Cc1nc2ccc(NC(=O)c3ccc(Cl)c([N+](=O)[O-])c3)cc2s1	-2	-6	10	-1	-0.8	5.7	8	-3	-2.9	-9
COc1ccc(CN2CCCC(C(=O)Nc3cccc(-n4cccn4)c3)C2)cc1 (configuration not stated)	7	20	0	-14	-0.1	-0.6	1	0	-9.5	-3
COc1ccc(C(=O)N/N=C(\C)CC(=O)Nc2ccccn2)cc1OC	-4	-2	9	-4	-0.1	-2.7	13	0	-2.4	-4
CCCC(=O)C1=C(O)C(C(=O)OC)C(C)(C)CC1=Nc1ccncc1 (configuration not stated)	nt	-4	nt	1	-0.6	nt	nt	-1	-2.7	nt
CC(C(=O)Nc1ccccc1C(=O)N1CCOCC1)N(c1ccccc1)S(C)(=O)=O (configuration not stated)	1	-12	nt	-5	-0.4	nt	nt	-11	5.5	-4
CC1CN(C(=O)c2cc3cc(F)ccc3[nH]2)CC(C)O1 (configuration not stated)	7	-7	9	-4	-0.2	-2.5	-1	1	-2.1	-14
O=C(NCc1ccc(C(F)(F)F)cc1)C1CC(c2c(Cl)cccc2Cl)=NO1 (configuration not stated)	0	-1	2	-3	0.3	-0.3	-13	1	-4.6	-4
O=C(CN(c1ccccc1)S(=O)(=O)c1ccccc1)NCCSCc1ccco1	-3	14	nt	-1	0.1	nt	nt	-4	-3.4	nt
CCCCCn1c(CN2CCN(C(=O)OCC)CC2)nc2c1c(=O)n(C)c(=O)n2C	4	5	-8	-17	0.2	-0.3	3	-12	2.2	-6
Cc1ccc(CN2CCN(CC(=O)N=Nc3c(O)[nH]c4ccccc34)CC2)cc1	-7	58*	nt	-3	0.1	nt	nt	-28	-0.1	-1
COCCNC(=O)c1ccccc1NC(=O)c1ccc(Cl)c(S(=O)(=O)Nc2ccc(C)cc2C)c1	-6	33	nt	21	0.3	nt	nt	-2	4.9	5
CCCCn1c(CNC(=O)c2cccs2)nc2ccccc21	0	-7	1	-3	0.1	1.7	-7	-6	7.2	7
COc1cc(NC(=O)COc2ccccc2Cl)ccc1NC(=O)c1cccs1	0	-6	3	-3	0.9	0.1	6	26	-2.1	-2
Nc1ccc[n+](Cc2ccccn2)c1	-9	-17	nt	-8	-0.7	nt	nt	4	-2.8	-2
O=C(COC(=O)C1(c2ccc(F)cc2)CCCC1)N1CCOCC1	-13	-2	nt	nt	1.5	nt	nt	-6	-0.3	4
O=C(NN=Cc1ccccc1Cl)c1ccc(-n2cnnn2)cc1	nt	nt	12	nt	0.9	2.9	17	-1	-1.3	-1
On1c(-c2ccccc2)nc2ncccc21	1	-9	-4	4	-0.2	-2.4	-1	-3	-0.4	-6
Cn1nc(C(=O)OCCN2C(=O)c3ccccc3C2=O)c2ccccc2c1=O	-4	4	nt	12	-0.9	nt	nt	-4	2.3	-3
Cc1ccc(O)c(C(=O)c2cc(C#N)c(=O)n(-c3c(C)n(C)n(-c4ccccc4)c3=O)c2)c1	9	-5	nt	-3	0.8	nt	nt	-3	2.0	5
COc1ccc(C(=O)Nc2ccc(NC(=O)CSc3nnc(-c4ccncc4)n3C)cc2)cc1	-5	-12	7	1	-0.5	0.1	10	1	2.6	3
Cc1ccc(S(=O)(=O)N2CCN(C(=O)CSc3nccn3C)CC2)cc1	-2	-3	12	5	2.1	-1.8	10	-5	0.1	-1
COC(=O)c1cc2ccsc2n1CC(=O)NCC1CCCO1 (configuration not stated)	-60	-6	12	-9	-0.6	-0.3	9	4	5.1	-4
COC(=O)c1c(NC(=O)CSc2ncn[nH]2)sc(C)c1C	3	6	-2	12	0.3	5.6	-10	0	0.2	-7
O=C(COCc1cc(-c2ccc3c(c2)OCO3)on1)N1CCN(c2cccc(C(F)(F)F)c2)CC1	-6	-2	1	-2	-0.3	3.6	-1	-8	-3.6	-13
CCCC(=O)C1=C(N2CCCCC2)CC(C)(C)C(C(=O)OC)C1=O (configuration not stated)	-5	-18	10	0	0.0	-6.0	-2	11	0.5	-2
CCc1nnc(NC(=O)C2CCCN2C(=O)Nc2ccccc2OC)s1 (configuration not stated)	-11	-7	nt	2	-0.2	nt	nt	-2	3.8	-3
O=c1[nH]cc(S(=O)(=O)c2ccccc2)[nH]1	15	-7	27	8	0.2	2.4	24	-5	3.1	-4
Cc1ccc(S(=O)(=O)n2cc(C=O)c3ccccc32)cc1	-6	1	-5	9	0.1	0.9	-6	11	-1.4	-3
COC(=O)[C@H](CCSC)NC(=O)NCc1cccs1	-4	-10	nt	3	0.2	nt	nt	10	-1.4	-7
CCOc1cc(N2CCOCC2)c(OCC)cc1NC(=O)C1=NN(c2cccc(C)c2)C(=O)CC1	-7	39	6	8	-0.7	-2.6	9	3	5.9	11
COc1ccc(C(=O)COC(=O)C(C(C)C)N2C(=O)C3C4C=CC(C4)C3C2=O)cc1 (configuration not stated)	nt	14	nt	4	0.2	nt	nt	-2	5.6	-4
O=C(CNC(=O)c1cccc(OC(F)F)c1)OCc1cc(=O)n2cc(Br)ccc2n1	nt	-3	nt	-7	0.2	nt	nt	-16	nt	-1
Cc1ccc2nc(SCC(=O)N3CCC(C)CC3)nc(=O)n2c1	nt	-6	1	-7	0.1	-0.2	6	-15	nt	3
Cc1ccc(CN2CCN(/N=C/c3cc(Br)ccc3F)CC2)cc1	-8	18	-17	-1	-0.4	-2.0	-4	-9	-3.9	0
CSC(=O)CC(=O)NC(=O)c1ccccc1	97*	-20	nt	0	-0.9	nt	nt	-3	-4.6	-15
CC(=O)Nc1ccc(S(=O)(=O)Nc2cc(Cl)ccc2N2CCOCC2)cc1	-2	nt	-8	nt	0.8	-4.6	-8	2	-0.4	-5
COc1ccccc1N1C(=O)C2CC=CC(C)C2C1=O (configuration not stated)	5	-7	nt	-12	1.0	nt	nt	-1	2.5	1
NS(=O)(=O)c1ccc(N2CCN(S(=O)(=O)Cc3ccccc3)CC2)nc1	-2	nt	1	nt	?	-0.8	10	-2	1.3	-1
O=C(CCN1C(=O)[C@@H]2Cc3ccccc3CN2C1=O)N[C@@H](Cc1ccccc1)C(=O)O	-46	-12	11	0	0.8	1.1	13	0	1.2	nt
O=C(Nc1c(C(=O)N2CCOCC2)cnn1-c1ccccc1)c1ccccc1	4	-11	nt	0	0.1	nt	nt	13	-4.2	2
CC(C)=CCc1c(O)c(CC=C(C)C)c2occ(-c3ccc(O)cc3)c(=O)c2c1O	-39	33	-8	2	1.8	-7.0	3	6	-1.5	nt

Compound activity as filed in PubChem.
